From PubChem BioAssay
HNF4A DNA FP = change in binding of human HNF4 alpha to DNA; activity change, % at 10 µM; 360,000 tested, 0.3% active; HNF4a-FITC DNA binding, fluorescence polarization, 1 h; in the data active = activity change above about 30%, passing the limit was not always enough;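 also: controls were the assay level and a saturating level of protein; the project sought stronger binding though the title names inhibitors; some compounds called inactive have numbers as strong as hits; positive values seem to mean higher polarization but the record does not say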
Ecoli growth = inhibitors of Escherichia coli growth. OD600, 23 h; hits give low values. OD600 absorbance (no concentration beside the values). 330,000 tested, 0.21% active. AID 1053175;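 active = OD600 absorbance below the run mean of sample wells minus 3.6 SD, in any replicate, cut at about 0.56 in these data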;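 also: stock transfer was 300 nL into about 60 µL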
Vif A3G = inhibitors of Vif binding to APOBEC3G peptide, primary screen, biochemical, TR-FRET, GST-Vif 1-94, biotin-A3G peptide, dose response retest (AID 1117319); TR-FRET GST-Vif / biotin-A3G peptide binding; higher % means a stronger effect; test concentration not given here; strong numbers were not always called active; one-dose inhibition, %; IC50 in µM for titrated hits; 260,000 tested, 0.57% active;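 active = above the screen mean plus three standard deviations and confirmed in dose response; inconclusive = results disagree or hit not tested in dose response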;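 also: Vif residues 1-94 fused to GST binding biotinylated APOBEC3G peptide 110-148; 0% = full assay without inhibitor and 100% = GST in place of GST-Vif; retest series ran down from 100 µM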
LANA-H2B inh = blocks KSHV LANA binding to histone H2A/H2B | Q9QR71 | cell-free LANA-H2A/H2B peptide, fluorescence polarization | inhibition, % (no concentration beside the values) | 320,000 tested, 0.6% active; in the data active = inhibition mostly above about 10%, no sharp cut-off; inactive = mostly below about 6.7%;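 also: stock transfer was 7.5 nL into about 10 µL; 0% = median of vehicle wells and 100% = median of positive control wells; one replicate is shown; the record names a cut of 25% in any replicate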
Beta2AR agonist = activates human beta-2 adrenergic receptor causing internalization. P07550. Am2.2-beta2AR cells, FAP receptor internalization, flow cytometry; reference of the scale not given here. response, % (test concentration not listed). 340,000 tested, 0.43% active. AID 504454;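 active = response above a set limit, near 3 SD of response in nonfluorescent compounds, cut at about 42% in these data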;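 also: stock transfer was 100 nL into about 11 µL; a reference agonist was the positive control; negative values mostly stem from fluorescent compounds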
Target sequence (P07550 whole entry, looked up): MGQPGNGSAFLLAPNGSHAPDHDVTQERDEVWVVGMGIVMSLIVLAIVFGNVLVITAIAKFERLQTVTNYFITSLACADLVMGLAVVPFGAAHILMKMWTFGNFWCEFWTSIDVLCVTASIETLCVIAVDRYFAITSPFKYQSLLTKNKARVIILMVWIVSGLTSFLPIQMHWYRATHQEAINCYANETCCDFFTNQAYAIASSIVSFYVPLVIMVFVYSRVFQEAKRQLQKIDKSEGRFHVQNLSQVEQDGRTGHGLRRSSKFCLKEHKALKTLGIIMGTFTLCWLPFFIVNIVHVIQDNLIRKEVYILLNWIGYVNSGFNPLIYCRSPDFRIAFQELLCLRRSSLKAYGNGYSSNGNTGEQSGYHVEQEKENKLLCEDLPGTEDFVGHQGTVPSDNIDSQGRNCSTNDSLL
UCH37 DUB inh = blocks the human deubiquitinase UCH37. inhibition, % (test concentration not listed). 330,000 tested, 0.33% active. purified proteasome/UCH37, Ub-AMC cleavage fluorescence;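 active = mean of two replicates above 20%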;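 also: 0% = compound-free wells with enzyme and 100% = wells lacking proteasome; stock transfer was 100 nL into about 20 µL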
Target sequence (Q9Y5K5 whole entry, looked up): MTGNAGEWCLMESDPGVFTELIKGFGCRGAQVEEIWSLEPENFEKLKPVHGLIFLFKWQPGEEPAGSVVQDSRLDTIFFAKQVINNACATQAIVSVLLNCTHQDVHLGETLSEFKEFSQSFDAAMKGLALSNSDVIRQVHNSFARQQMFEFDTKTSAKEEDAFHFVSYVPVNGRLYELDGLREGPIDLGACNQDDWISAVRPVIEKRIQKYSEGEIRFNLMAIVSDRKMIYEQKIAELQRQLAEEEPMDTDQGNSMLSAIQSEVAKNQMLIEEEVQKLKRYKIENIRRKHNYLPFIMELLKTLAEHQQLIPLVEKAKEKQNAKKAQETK
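system = Proteasome-associated human UCH37 deubiquitinase | amount = 0.15 nM proteasome as dispensed | medium = pH 7.4 Tris-HCl (50 mM) with ovalbumin, ATP-MgCl2, DTT | incubation = 30 min preincubation with enzyme, 25 min cleavage at room temperature | detection = AMC fluorescence 355/460 nm | read-out basis = percent inhibition | controls = no-proteasome and no-compound wells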
Bfl-1 A1 inh = inhibitors of the anti-apoptotic protein A1, read as caspase activation | MEF A1-2A-BIM cells, Caspase-Glo 3/7 luminescence, 3 h; percent of clofoctol response, vehicle zero | AID 2462 | caspase activation, % (no concentration beside the values) | 330,000 tested, 0.066% active;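 active = over half of replicate activation scores above 10%, or exactly half above 10 with the replicate mean above 10; inconclusive = replicate mean below 10 yet half the replicates above 10; inactive = over half of replicates below 10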;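 also: wells of about 30 µL received 50 nL stock; many hits fall short of the cut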
The depositor's hits bear a star; i = inactive; ? = inconclusive; . = no result given.

SMILES | HNF4A DNA FP | Ecoli growth | Vif A3G | LANA-H2B inh | Beta2AR agonist | UCH37 DUB inh | Bfl-1 A1 inh
O=C1Nc2ccccc2C1=Nc1ccc(Cl)cc1 | -1.9 | 0.67 | 1% | -4.9 | 6 | 4.2 | 1.7
Cc1ccc(C(=O)Nc2ccc(F)cc2F)o1 | 1.4 | 0.7 | -4% | -3.5 | -1 | 1.5 | 0.6
CCOC(=O)Cc1csc(NC(=O)c2ccc3ncsc3c2)n1 | 0.9 | 0.65 | . | 1.3 | -2 | 0.5 | -0.8
COc1ccc(C(C(=O)NC(C)(C)C)N(C(=O)CCC(=O)Nc2cc(C)on2)c2cc(C)cc(C)c2)cc1 (stereo not given) | 0.6 | 0.7 | . | 2.1 | -19 | 4.4 | -0.7
O=C(NCCCN1CCOCC1)C(C(=O)c1ccccc1)n1ccccc1=O (stereo not given) | -2.9 | 0.66 | -4% | 2.8 | 2 | 3.1 | -1.0
Cn1nc(-c2ccc(Cl)cc2)c2cc(C(=O)N3CCN(c4ccccc4)CC3)sc21 | -4.0 | 0.77 | 65% | 1.4 | -2 | 2.5 | 1.6
COc1cccc(C(=O)NCCS(=O)(=O)NCc2ccc3c(c2)OCO3)c1 | -7.6 | 0.69 | -6% | 1.9 | -7 | 0.2 | 0.2
Cc1ccc(C)c(SCC(=O)NC2CCS(=O)(=O)C2)c1 (stereo not given) | -5.0 | 0.7 | -3% | . | -1 | 3.6 | .
O=C(Nc1ccccc1)c1ccccc1NS(=O)(=O)c1ccc(Cl)s1 | -2.2 | 0.59 | 0% | -3.0 | 12 | 4.2 | -0.7
COC(=O)[C@]12C(=O)C(C)=C(O)[C@@]1(C)C(C)=CC1[C@@]34CC[C@@H](OC(C)=O)C(C)(C)C3C(C[C@]12C)OC4=O (stereo not given in full) | -2.4 | 0.76 | . | -3.2 | -2 | 4.1 | 0.7
Cc1ccc(-c2ccc(=O)[nH]n2)cc1 | 0.9 | 0.66 | 29% | -1.9 | 2 | -0.8 | 0.9
CC(C)N(C)C1CCN(C(=O)Nc2ccc(Cl)cc2)CC1 | 4.4 | 0.71 | -3% | -3.9 | 0 | -6.7 | 0.2
CSc1ccccc1C(=O)Nc1ncn[nH]1 | 1.4 | 0.71 | . | -4.5 | -2 | 2.5 | 1.6
O=C(CSc1ccc2nnc(-c3cccs3)n2n1)N1CCOCC1 | 2.3 | 0.7 | . | . | -10 | 0.1 | .
COc1cccc(C2=CC(=O)CCC2)c1 | 1.0 | 0.61 | . | 2.3 | -12 | -2.0 | 1.0
O=C(Nc1cccc2ccccc12)C(=O)C1C(=O)Nc2ccccc21 (stereo not given) | 2.1 | 0.73 | 16% | 0.0 | 7 | 11 | -0.7
CC1CC(=O)Nc2cc([N+](=O)[O-])ccc2N1 (stereo not given) | -0.4 | 0.71 | ? | 2.6 | -8 | 6.9 | -1.9
Oc1cc(Nc2cccnc2)cc2cccnc12 | -2.3 | 0.59 | . | -2.5 | -2 | -0.5 | -0.2
CCC(C)C(=O)NCCc1ccc(S(N)(=O)=O)cc1 (stereo not given) | 0.7 | 0.73 | -2% | 0.3 | -1 | -1.3 | -0.3
COc1ccc(N2CCN(CC(O)COC(c3ccccc3)c3ccccc3)CC2)cc1 (stereo not given) | 5.0 | 0.66 | 5% | -3.1 | -4 | 4.0 | -0.3
COc1ccc(S(=O)(=O)N2CCC[C@H]2C(=O)NCc2ccc(Cl)cc2)cc1 | -1.7 | 0.69 | 23% | 4.3 | -10 | 1.9 | 0.5
N#CC(C#N)=Cc1c[nH]c(=O)c(C#N)c1Nc1ccccc1 | -16 | 0.63 | . | 2.6 | -5 | i | -1.4
CCCS(=O)(=O)c1c(S(=O)(=O)CCC)c2c3ccccc3ccn2c1C(N)=O | -1.6 | 0.66 | 2% | 2.7 | 4 | -0.9 | 0.5
Cc1cccc(CN2CCN(Cc3ccc(-n4cccn4)cc3)CC2CCO)n1 (stereo not given) | 2.6 | 0.62 | . | 2.4 | -12 | 2.1 | 0.8
COc1ccc(-c2csc3ncnc(N4CCN(S(=O)(=O)c5ccc(C(C)=O)cc5)CC4)c23)cc1 | 3.2 | 0.63 | -58% | 3.9 | 11 | 0.5 | -0.4
Cc1ccc(CN2CCC(C(=O)NCCC(C)C)CC2)o1 | -3.3 | 0.75 | 13% | 1.4 | 5 | -0.9 | 0.4
Cc1ccc(CC(=O)OC(C)C(=O)NC2CCCCC2C)cc1C (stereo not given) | -0.4 | 0.66 | -7% | -2.7 | -8 | 3.2 | 0.1
Cc1cc(=O)[nH]c(SCC(=O)Nc2ccc(C)c(S(=O)(=O)N3CCCCC3)c2)n1 | 0.3 | 0.67 | 1% | 2.9 | 4 | 0.9 | 0.3
Cc1nn(-c2ccccc2)c(N2CCCC2)c1/C=N/NC(=S)Nc1ccccc1C(F)(F)F | -1.1 | . | . | 1.7 | 0 | . | ?
COc1cc(-c2nn3c(COc4ccccc4)nnc3s2)cc(OC)c1OC | -3.6 | 0.71 | -24% | 2.1 | -4 | -29 | -0.2
CCCCc1nc2sc3c(c2c(=O)[nH]1)CC(C)(C)OC3 | -2.5 | 0.62 | . | 2.5 | -2 | 6.2 | 0.5
COC(=O)/C=C1/SC(=Nc2ccc(C)cc2C)NC1=O | -1.2 | 0.73 | -4% | -3.2 | 16 | 2.3 | 0.0
O=C(NCC1CCCO1)C1c2ccccc2C(=O)N1Cc1ccc2c(c1)OCO2 (stereo not given) | -0.9 | 0.73 | -1% | 0.7 | 5 | 2.3 | 0.3
COc1ccc(CNC(=O)c2ccc(CS(=O)(=O)c3ccc(Br)cc3)o2)cc1 | -1.2 | 0.77 | 1% | 0.7 | -9 | 2.2 | -0.9
COc1ccc(Cl)cc1NC(=O)C[n+]1ccccc1 | 1.3 | 0.68 | . | 6.3 | -4 | 4.2 | -0.2
COc1ccc(C(=O)Nc2cc3c4c(c2)C(C)C(=O)N4CCC3)c(OC)c1 (stereo not given) | -3.9 | 0.65 | 6% | -2.0 | 4 | 0.4 | -0.4
CCc1ccc(NS(=O)(=O)c2ccc3c(c2)CCN3C(=O)CCC(=O)O)cc1 | -1.4 | 0.66 | -5% | 1.2 | -1 | 2.3 | 1.3
Cc1ccc(-c2csc3ncn(CC(=O)N4CCOCC4)c(=O)c23)cc1 | 1.4 | 0.75 | -3% | 1.3 | 4 | 3.6 | 1.6
O=C(CNCc1ccccc1)NC1C2CC3CC(C2)CC1C3 (stereo not given) | -1.3 | 0.62 | 3% | -0.8 | -5 | 2.1 | -0.3
CCCn1c(=O)c(C(=O)c2ccccc2)nc2ccccc21 | 1.9 | 0.66 | -6% | 1.6 | -15 | 3.4 | 0.0
Cc1ccc(NC2CCCN(C(=O)c3cn4cccc(C)c4n3)C2)cc1C (stereo not given) | 0.2 | 0.66 | . | -1.6 | 0 | -3.2 | 0.7
CC1=CS(=O)(=O)CC1Sc1nc(C)n[nH]1 (stereo not given) | 0.6 | 0.67 | 3% | 2.3 | -3 | 0.3 | -1.6
CCOC(=O)c1nn(-c2ccccc2)c(C)c1C(C)=O | -1.5 | 0.65 | -6% | -0.1 | 3 | 2.0 | 0.1
Nc1cc(-c2nc3ncccc3o2)ccc1Cl | 2.1 | 0.6 | 3% | 2.2 | -15 | -122 | -3.1
CC(C)(C)c1ccc(C2CC2C(=O)N/N=C\c2cc3ccccc3nc2Cl)cc1 (stereo not given) | 0.8 | . | 6% | -5.0 | -6 | . | ?
CC(C)C(=O)Nc1nnc(S(=O)(=O)N2c3ccccc3CC2C)s1 (stereo not given) | 1.3 | 0.77 | . | -1.9 | -2 | 5.3 | 0.0
CS(=O)(=O)N1CCC(C(=O)Nc2ccccc2Br)CC1 | 2.7 | 0.7 | . | -0.1 | 7 | 2.6 | 0.2
COc1ccc(CN(CC(=O)NC2CCCC2)C(=O)CCC(=O)Nc2cc(C)on2)cc1 | 1.6 | 0.72 | -3% | 0.0 | 3 | 1.3 | -0.1

The list goes on, starting with the last 3 of the part before.
SMILES | HNF4A DNA FP | Ecoli growth | Vif A3G | LANA-H2B inh | Beta2AR agonist | UCH37 DUB inh | Bfl-1 A1 inh
CC(C)C(=O)Nc1nnc(S(=O)(=O)N2c3ccccc3CC2C)s1 (stereo not given) | 1.3 | 0.77 | . | -1.9 | -2 | 5.3 | 0.0
CS(=O)(=O)N1CCC(C(=O)Nc2ccccc2Br)CC1 | 2.7 | 0.7 | . | -0.1 | 7 | 2.6 | 0.2
COc1ccc(CN(CC(=O)NC2CCCC2)C(=O)CCC(=O)Nc2cc(C)on2)cc1 | 1.6 | 0.72 | -3% | 0.0 | 3 | 1.3 | -0.1
CC(=O)Nc1ccc(S(=O)(=O)NCCc2ccc(S(N)(=O)=O)cc2)cc1 | -6.2 | 0.7 | 1% | -1.4 | 2 | 0.8 | -0.8
CSc1cc(CS(=O)(=O)c2ccccc2)nc(-c2ccccc2)n1 | -2.5 | 0.75 | -10% | -3.8 | -6 | 7.8 | -0.8
Cc1cc(=O)n2[nH]c(Nc3cccc(Cl)c3)nc2n1 | 3.1 | 0.65 | . | -2.5 | -3 | -0.6 | -2.1
O=C1NC2(CCCC2)N=C1c1ccc(Cl)cc1 | -2.0 | 0.69 | -2% | -3.1 | -11 | 2.4 | 0.7
COc1cc2c(C(=O)N3CCN(c4cccc(Cl)c4)CC3)cn(CC(C)C)c(=O)c2cc1OC | 3.8 | 0.72 | 24% | -1.6 | -10 | 5.6 | 0.0
COc1ccc(NC(=S)NC(=O)Cc2ccccc2)c(OC)c1 | -2.8 | 0.71 | . | -0.8 | -2 | 1.6 | ?
O=C(O)CSc1nnc(-c2ccco2)o1 | -1.9 | 0.75 | 26% | 0.2 | -1 | -2.6 | -0.2
Clc1ccc(CSc2ccc(-c3ccco3)nn2)cc1 | -6.7 | 0.73 | 1% | -2.5 | 4 | 3.8 | -0.9
CN(C(=O)c1ccc(NC(=O)Cc2ccc(NC(=O)C3CCCN(C(=O)CCc4ccccc4)C3)cc2)cc1)C1CC1 (stereo not given) | -1.9 | 0.7 | . | -0.3 | -11 | -0.9 | 0.1
O=C(NNc1nc2c(F)cccc2s1)c1cc(=O)c2ccccc2o1 | 7.9 | . | 22% | 0.8 | 10 | . | -6.0
N#CCCN1CCNCC1 | -1.6 | 0.71 | 4% | 1.1 | 2 | 5.3 | -0.5
OC(CN1C2=NCCN2c2ccccc21)c1ccc(Br)cc1 (stereo not given) | 2.3 | 0.67 | -1% | -0.5 | -3 | 0.8 | -0.6
CC(=O)OCC1OC(Sc2cccc3cccnc23)C(OC(C)=O)C(OC(C)=O)C1OC(C)=O (stereo not given) | -1.4 | 0.74 | 0% | 0.8 | 1 | -49 | 0.7
COc1cccc(/C=N/NC(=O)Cn2cnc3c2c(=O)n(C)c(=O)n3C)c1 | -2.4 | . | 2% | -1.8 | 0 | . | 0.3
Cc1cc2cc(CCNC(=O)CCc3ccccc3)c(=O)[nH]c2cc1C | -0.2 | 0.73 | . | 0.6 | -5 | -1.6 | -0.3
CCOc1cc2[nH]c(=S)n(CCc3ccc(OC)c(OC)c3)c(=O)c2cc1OCC | 0.0 | 0.72 | -8% | -1.5 | 31 | -2.8 | 0.6

2 of the compounds above, tab-delimited:
molecule	HNF4A DNA FP	Ecoli growth	Vif A3G	LANA-H2B inh	Beta2AR agonist	UCH37 DUB inh	Bfl-1 A1 inh
COc1ccc(NC(=S)NC(=O)Cc2ccccc2)c(OC)c1	-2.8	0.71	.	-0.8	-2	1.6	?
O=C(O)CSc1nnc(-c2ccco2)o1	-1.9	0.75	26%	0.2	-1	-2.6	-0.2

Rows are unselected; any-hit rate near 2.1%.
